# Methyltransferases – Primary Screen for Target Class Profiling of Small Molecule Inhibitors of Methyltransferases | purified enzyme, MTase-Glo SAH luminescence; stronger effect = lower value | calls only at 40 µM | 25,000 compounds, 3.9% hits; active = -50% or lower on at least one of six enzymes; inconclusive = the cases between; inactive = as a rule above -30% on all six;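 also: enzymes were COMT GAMT GNMT HNMT NNMT and PNMT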
#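 Each enzyme was assayed with SAM and its substrate. SAH formation detected by MTase-Glo luminescence; single-point 40 uM screen[…].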
# Calls only; i = inactive; ? = inconclusive; + = active, no number; ! = repeats disagree. % is scaled to controls: 0 for no effect and ±100 for the full control effect.
# The first 12 entries, ahead of the listing:
SMILES,Methyltransferases
CC/C=C/C(O)C(O)C1=C(C)C(=O)C2(O1)C(=O)NC(OC)(C(=O)c1ccccc1)C2O (configuration not stated),i
CC(C)(C)c1cc2n(n1)CC(C)(C(=O)NC1CCCCC1)N(Cc1cccc(Cl)c1)C2=O (configuration not stated),i
Cc1ccc(N2C(=O)CSc3c(c4ccccc4n3C)C2C(=O)NCc2ccccc2)cc1C (configuration not stated),i
Cc1ccc(NC(=O)N2CCn3cccc3C2C)c(C)c1 (configuration not stated),i
CC1CCCN(C(=O)Cn2c(=O)oc3cc(S(=O)(=O)N4CC(C)CC(C)C4)ccc32)C1 (configuration not stated),i
CCc1nc2c(c(-c3ccc(Cl)cc3)n1)CCN(Cc1ccnn1C)CC2,i
C=C1C(OC2OCC(O)C(O)C2O)CC2C(C)(C)C(O)CCC2(C)C1CC/C(C)=C\CO (configuration not stated),?
CC(C)(Sc1ccc(CCN(CCCCC2CCCCC2)C(=O)NC2CCCCC2)cc1)C(=O)O,+!
COC(=O)COc1ccc(CC2C(=O)NCCc3ccccc3OCC(=O)N2C)cc1 (configuration not stated),i
O=C(c1ccc(F)cc1)N1CCC(N2CCCCCC2=O)CC1,i
COc1ccc(N2CCOC3CCN(Cc4ccc(C(C)C)cc4)CC3C2=O)cc1 (configuration not stated),i
Cc1c(C)c(NCC(=O)N(C)C2CCN(Cc3ccc(C(N)=O)cc3)CC2)c(C)c(C)c1N,i

# Main list, repeating the preview:
SMILES,Methyltransferases
CC/C=C/C(O)C(O)C1=C(C)C(=O)C2(O1)C(=O)NC(OC)(C(=O)c1ccccc1)C2O (configuration not stated),i
CC(C)(C)c1cc2n(n1)CC(C)(C(=O)NC1CCCCC1)N(Cc1cccc(Cl)c1)C2=O (configuration not stated),i
Cc1ccc(N2C(=O)CSc3c(c4ccccc4n3C)C2C(=O)NCc2ccccc2)cc1C (configuration not stated),i
Cc1ccc(NC(=O)N2CCn3cccc3C2C)c(C)c1 (configuration not stated),i
CC1CCCN(C(=O)Cn2c(=O)oc3cc(S(=O)(=O)N4CC(C)CC(C)C4)ccc32)C1 (configuration not stated),i
CCc1nc2c(c(-c3ccc(Cl)cc3)n1)CCN(Cc1ccnn1C)CC2,i
C=C1C(OC2OCC(O)C(O)C2O)CC2C(C)(C)C(O)CCC2(C)C1CC/C(C)=C\CO (configuration not stated),?
CC(C)(Sc1ccc(CCN(CCCCC2CCCCC2)C(=O)NC2CCCCC2)cc1)C(=O)O,+!
COC(=O)COc1ccc(CC2C(=O)NCCc3ccccc3OCC(=O)N2C)cc1 (configuration not stated),i
O=C(c1ccc(F)cc1)N1CCC(N2CCCCCC2=O)CC1,i
COc1ccc(N2CCOC3CCN(Cc4ccc(C(C)C)cc4)CC3C2=O)cc1 (configuration not stated),i
Cc1c(C)c(NCC(=O)N(C)C2CCN(Cc3ccc(C(N)=O)cc3)CC2)c(C)c(C)c1N,i
CC(C)C1CCC(C(=O)N[C@@H](Cc2ccccc2)C(=O)O)CC1 (some centres not stated),?
Cc1ccc(C(=O)Cn2nc3n(C(C)C)c(=O)c4ccc(C(=O)NCC(C)C)cc4n3c2=O)c(C)c1,i
CN1C(=O)c2cc(C(=O)NCCCc3ccccc3)nn2CC1(C)C(=O)NC1CCCCCC1 (configuration not stated),i
COCCN1CCCC2(CCN(C(=O)CN3C(=O)CNC3=O)C2)C1=O (configuration not stated),i
COc1ccc(/C=C2\COc3ccc(C)cc3C2=O)cc1O,?
O=C1CCCN1CCCN1C(=O)[C@H]2CN(Cc3ccc(Cl)cc3)C[C@H]2C1=O,i
COc1ccc(CNC(=O)Cn2ccc3cc(S(=O)(=O)N4CCCC4)ccc32)cc1OC,i
CCc1ccc(N2C(=O)c3cc(-c4cccs4)nn3CC2(C)C(=O)NC2CCCCC2)cc1 (configuration not stated),i
CC(C)(O)c1ccc2c(c1)C(=O)CC1[C@](C)(CO)CCC[C@]21C (some centres not stated),i
CCCn1c(=O)c2ccccc2n2c(SCC(=O)Nc3ccc(F)cc3F)nnc12,i
O=C(c1cccc(OC(F)F)c1)N1CC[C@H](N2CCOCC2)[C@H](CCCO)C1,i
CCC(C)C(=O)O[C@H]1[C@H](O)[C@@]2(COC(C)=O)C(CC1(C)C)C1=CCC3[C@@]4(C)CC[C@H](O[C@@H]5O[C@H](C(=O)O)[C@@H](O)[C@H](O)[C@H]5O)[C@@](C)(CO)C4CC[C@@]3(C)[C@]1(C)C[C@@H]2O (some centres not stated),i
COc1cc(NC(=O)Cn2nc3n(Cc4ccc(F)cc4)c(=O)c4ccccc4n3c2=O)cc(OC)c1,i
Cn1c(C(=O)N2CCN(c3ccccn3)CC2)nc2nc(-c3ccccc3)c(Cl)cc21,i
O=c1[nH]c(C2CCCN([S+](=O)([O-])c3cccc(C(F)(F)F)c3)C2)nn1-c1ccccn1 (configuration not stated),i
Cc1oc2c(c1C(=O)N1CCN(C3CCCC3)CC1)CN(Cc1cccc(F)c1)CC2,i
Cc1ccc(N2C(=O)c3cc4ccccc4n3CC2(C)C(=O)NC2CCCC2)cc1 (configuration not stated),i
CC(C)CCn1c(=O)c2ccc(C(=O)NC3CCCC3)cc2n2c(=O)n(CC(=O)c3ccccc3)nc12,i
O=C(c1ccc(C2CCCNC2)cc1)N1CCN(c2ccncc2)CC1 (configuration not stated),+
Cc1ccc(N2C(=O)c3cc4occc4n3CC2(C)C(=O)NC2CCCCC2)cc1C (configuration not stated),i
O=C(Nc1ccc(=O)n2c1[C@@H]1C[C@@H](CN(C(=O)COc3ccccc3)C1)C2)c1ccccc1,i
CN(C)CCC(CSc1ccccc1)Nc1ccc(S(=O)(=O)NC(=O)c2ccc(N3CCN(Cc4ccccc4-c4ccc(Cl)cc4)CC3)cc2)cc1[N+](=O)[O-] (configuration not stated),?
O=c1ncn(Cc2ccccc2)c2ccc(-c3ccoc3)nc12,i
O=C1NC(=NC2CCCCC2)C2(CCN(CC3CCCCC3)C2)N1c1cccnc1 (configuration not stated),?
CCNC(=O)N1CCCC(Cc2noc(-c3ccccc3)n2)C1 (configuration not stated),i
CC1CCC(NC(=O)C2(C)Cn3c(ccc3-c3ccccc3)C(=O)N2Cc2ccccc2Cl)CC1 (configuration not stated),i
C[S+](=O)([O-])N1CC2(CCCN2CC2CCCCC2)Cc2ccccc21 (configuration not stated),i
CN(CC1COCCO1)S(=O)(=O)Nc1ccc2ccc3ncc(-c4cnn(C)c4)cc3c(=O)c2c1 (configuration not stated),?
COc1ccc(CNC(=O)c2ccc3c(=O)nc4c(-c5cccc(F)c5)n[nH]n4c3c2)cc1,i
CCCS(=O)(=O)N1CCCCC1c1nc(-c2cnccn2)n[nH]1 (configuration not stated),i
OC[C@@H]1O[C@H](CNCc2cccc(Cl)c2)[C@H](N2CCN(c3ccccn3)CC2)[C@@H]1O,i
COCCN1CC2(CCOC2)N(C2CCN(C(=O)c3ccc(OC)cc3)CC2)C1=O (configuration not stated),i
Cc1ccc(-c2noc(-c3cccc(S(=O)(=O)N4CCN(c5cccc(C)c5)C(C)C4)c3)n2)cc1 (configuration not stated),i
OC[C@@]1(O)CO[C@H](OC[C@H]2O[C@@H](OC(CCCCc3ccc(O)cc3)CCc3ccc(O)cc3)[C@H](O)[C@@H](O)[C@@H]2O)[C@@H]1O (some centres not stated),i
CN(C)C[C@@H]1CN(c2ncccn2)C[C@H]1NC(=O)COc1ccc(Cl)cc1,i
COc1cccc(CNC(=O)Cn2nc3n(CCc4ccccc4)c(=O)c4ccccc4n3c2=O)c1,i
CC(C)Cn1c(=O)c2ccc(C(=O)NC(C)C)cc2n2c(SCc3c(F)cccc3Cl)nnc12,i
CN(CC1CCOC1)C(=O)Cc1ccccc1 (configuration not stated),i
COc1ccc(NC(=O)CCc2nnc3n(CCCOC(C)C)c(=O)c4ccccc4n23)cc1OC,i
CCC(C)C(=O)OC12C(OC(C)=O)C(C)C3(O)C(C=C(CO)CC4(O)C(=O)C(C)=CC43)C1C2(C)C (configuration not stated),i
Cc1cccc(CNC(=O)CNC(=O)C2(C)Cn3c(cc4ccccc43)C(=O)N2C)c1 (configuration not stated),i
O=C(NC1C[C@H]2CC[C@@H](C1)N2S(=O)(=O)c1cccs1)c1ccncc1 (some centres not stated),i
COCCCNC(=O)CCc1nnc2n(CCc3ccccc3)c(=O)c3ccccc3n12,i
CCN1C(=O)c2cc(C(=O)Nc3ccc(Cl)cc3C)nn2CC1(C)C(=O)NC1CCCC1 (configuration not stated),i
CCC(C)NC(=O)c1ccc2c(=O)n(CCC(C)C)c3nn(CC(=O)N(C)c4ccccc4)c(=O)n3c2c1 (configuration not stated),i
CCCn1c(=O)c2ccc(C(=O)NC(C)C)cc2n2c(SCC(=O)Nc3ccccc3C)nnc12,i
OCCCNc1cc(-c2ccnc(Nc3cccc(Cl)c3)n2)ccn1,+
CN(CCCN1C(=O)c2ccc(-c3ccco3)n2CC1(C)C(=O)NC1CCCC1)C1CCCCC1 (configuration not stated),i

# Next part:
SMILES,Methyltransferases
COc1ccccc1C(=O)N1CCCCCC1CN1CCc2ccccc2C1 (configuration not stated),i
COCCCN1C(=O)c2ccc(-c3ccco3)n2CC1(C)C(=O)NCc1ccccc1 (configuration not stated),i
COc1cccc(CNC(=O)c2ccc3c(=O)nc4c(-c5ccccc5F)n[nH]n4c3c2)c1,i
CC1=C2C[C@H]3OC(=O)[C@H](O)[C@@]4(O)[C@@H](C)[C@@H](O)[C@H](O)C([C@@]2(C)[C@H](O)[C@@H](O)C1)[C@@]34C (some centres not stated),i
CSc1ccc(-c2nc(CN(C)Cc3cc(C)no3)c(C)o2)cc1,i
CCCN1C(=O)c2c(C(=O)NCc3ccc(OC)cc3)ncn2CC1(C)C(=O)NCc1ccc(F)cc1 (configuration not stated),i
CC(C)(C)CCN1C[C@@H]2C(CNC(=O)c3cc(Cl)cc(Cl)c3)[C@@H]2C1 (some centres not stated),i
O=C(NCc1csc(-c2cnccn2)n1)C1NCCc2[nH]cnc21 (configuration not stated),i
CC1(C(=O)NC2CCCCC2)Cn2c(ccc2-c2ccco2)C(=O)N1CCN1CCOCC1 (configuration not stated),i
CCCCN1C(=O)c2cc(C(=O)NCc3cc(OC)ccc3OC)nn2CC1(C)C(=O)NC1CCCC1 (configuration not stated),i
CC1(C)[C@@H]2CC=C(CO[C@@H]3O[C@H](CO[C@@H]4OC[C@H](O)[C@H](O)[C@H]4O)[C@@H](O)[C@H](O)[C@H]3O)[C@H]1C2,i
CN1C(=O)c2cc(C(=O)NCc3cccnc3)nn2CC1(C)C(=O)NC1CCCC1 (configuration not stated),i
CCC(C)NC(=O)c1ccc2c(=O)n(CC(C)C)c3nn(CC(=O)c4cccc(Cl)c4)c(=O)n3c2c1 (configuration not stated),i
CCn1nccc1C(=O)N1CC[C@@H]2CN(Cc3ccccc3)[C@@H]2C1,i
C=CCN1CCN(C(=O)[C@@]23CCCC[C@H]2N(CCC(C)C)C(=O)CC3)CC1,i
CCOc1ccc(C(=O)Cn2nc3n(C(C)C)c(=O)c4ccc(C(=O)NC(C)CC)cc4n3c2=O)cc1 (configuration not stated),i
CN[C@@H](C)C(=O)N1CCC(c2cc(N3CCOCC3)nc(C)n2)CC1,i
O=C(CC1CC1)NC1CCCc2nc(-c3ccccc3)ncc21 (configuration not stated),i
O=C(O)C1(c2ccccc2)CCN(S(=O)(=O)c2cccs2)CC1,i
O=C(Cn1nc2n(Cc3ccccc3)c(=O)c3ccccc3n2c1=O)c1ccc(F)cc1,i
CCOc1ccccc1CN1C(=O)c2cc3ccc(OC)cc3n2CC1(C)C(=O)NC1CCCC1 (configuration not stated),i
CC1(C(=O)NC2CCCC2)Cn2c(ccc2-c2ccccc2)C(=O)N1CCCc1ccccc1 (configuration not stated),i
CCCn1c(=O)c2ccc(C(=O)NC3CCCC3)cc2n2c(=O)n(Cc3ccc(F)cc3Cl)nc12,i
COC(=O)c1cc2n(n1)CC(C)(C(=O)NC1CCC(C)CC1)N(c1ccc(C)cc1C)C2=O (configuration not stated),i
O=C(Cn1nc2n(Cc3ccccc3)c(=O)c3ccccc3n2c1=O)Nc1cccc(F)c1,i
COC(=O)c1cc2n(n1)CC(C)(C(=O)NC1CCCCCC1)N(c1ccc(F)cc1C)C2=O (configuration not stated),i
COc1ccccc1[C@@H]1C2=C(CC(C)(C)CC2=O)Nc2n[nH]c(C(F)(F)F)c21,i
Cc1ccc(CN2C(=O)c3ccc(-c4ccccc4)n3CC2(C)C(=O)NC2CCCCCCC2)cc1 (configuration not stated),i
CCc1ccccc1NC(=O)Cn1nc2n(CCC(C)C)c(=O)c3ccc(C(=O)NC(C)C)cc3n2c1=O,i
CCc1ccc(N2C(=O)c3cc(-c4ccc(OC)cc4)nn3CC2(C)C(=O)NCc2ccccc2OC)cc1 (configuration not stated),i
CC1(C)CC2=C3C=CC4C5(C)CCC(O)C(C)(C)C5CCC4(C)C3(C)CCC2(C)C(O)C1 (configuration not stated),i
O=C(NCCN1CCCCC1)[C@H]1C[C@@H](O)[C@H](O)[C@@H]2N=C(Nc3ccc4c(c3)OCO4)S[C@@H]21,i
COc1ccc(Cl)cc1NC(=O)CCC1CCCN(C(=O)c2ccnn2C)C1 (configuration not stated),i
CCc1ccc(C2c3cccn3-c3sc4c(c3CN2C(=O)NCCCOC)CCCC4)cc1 (configuration not stated),i
COc1cccc(N2C(=O)c3ccc(-c4ccco4)n3CC2(C)C(=O)NC2CCCC2)c1 (configuration not stated),i
C/C=C/CN1C[C@@H](NC(=O)c2cccc(N(C)C)c2)C[C@H]1C(=O)NCC,i
CCc1c[nH]c2ncnc(N3CC[C@](N)(CNC(=O)c4ccc(F)cc4F)C3)c12,?
COc1ccc2nc([C@H]3CCN(C4CCCCC4)C3)[nH]c2c1,+

# This is a subset (hit frequency here may not be typical).
